# HCMV UL50-53 inh: cytomegalovirus nuclear egress complex inhibition; HTRF UL50-UL53 interaction, normalized percent inhibition; inhibition, % (no concentration beside the values); 0.15% of 190,000 active; AID 1918969;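 active means both replicates at 50% or more, plus weaker picks with an unusually low signal ratio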;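 further: stock transfer was 100 nL into about 20 µL; 0% = negative control wells and 100% = wells with untagged competitor protein; inactives centre near -12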
# Sa growth 42C: inhibitors of Staphylococcus aureus growth at 42 °C | S. aureus RN4220 growth, OD600, 20 h; stronger effect = lower value | relative growth, % (concentration not given with the values) | 0.53% of 170,000 active | AID 720641;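 active means growth at 42 °C up to 50% and 20 or more points under that at 30 °C, or under 10% at both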;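 further: 300 nL library stock went into each well; scaled to the means of positive and negative controls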
# GIV Gai3 FP: inhibitors of GIV GBA-motif binding to rat Galpha-i3; P08753; Galpha-i3/FITC-GIV peptide fluorescence polarization, 90 min; stronger effect = lower value; scaled: aluminum fluoride 0%, vehicle 100%; percent of control (FP), % (test concentration not listed); 0.42% of 210,000 active;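 active means replicate mean at 85% of control or lower, very high polarization wells dropped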;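 further: wells of about 15 µL received 100 nL stock; the first replicate is given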
# Target sequence (P08753 whole entry, looked up): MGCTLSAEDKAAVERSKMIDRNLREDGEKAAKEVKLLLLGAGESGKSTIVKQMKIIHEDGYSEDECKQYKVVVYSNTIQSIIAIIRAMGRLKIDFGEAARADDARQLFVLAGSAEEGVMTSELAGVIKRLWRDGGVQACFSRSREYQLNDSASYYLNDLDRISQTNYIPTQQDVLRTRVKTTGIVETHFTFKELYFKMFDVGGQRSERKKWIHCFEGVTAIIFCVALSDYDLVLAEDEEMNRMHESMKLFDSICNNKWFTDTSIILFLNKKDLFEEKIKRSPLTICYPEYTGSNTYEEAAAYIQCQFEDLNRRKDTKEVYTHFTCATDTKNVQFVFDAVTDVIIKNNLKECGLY
# Sa growth 42C second temp: also measured in Sa growth 42C; calls as there; relative growth, %; measured here: growth at 30 °C;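 optical density after 20 h as mean of two plates; 100% = untreated growth and lower means inhibition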
# * marks the source's active call; other numbers are inactive results; x = no result given; & = joins results of further samples.
entry	smiles	HCMV UL50-53 inh	GIV Gai3 FP	Sa growth 42C	Sa growth 42C second temp
1	S=C(Nc1ccc2[nH]ccc2c1)NC1CCCCC1	6	109	96	90
2	COc1ccc(CCN(C)CCCC(C#N)(c2cc(OC)c(OC)c(OC)c2)C(C)C)cc1OC (stereo not given)	-7&-22	102	x	x
3	O=C(O)c1cn2ccccc2n1	23	x	112	110
4	Cc1nc2ccccc2nc1SCC(=O)Nc1ccccc1	-23	x	103	85
5	NC(=O)N1CCC(C(=O)O)CC1	12	x	109	100
6	CCOC(=O)C1CCN(C(=O)CSc2n[nH]c(-c3ccccc3Cl)n2)CC1	x	102	103	92
7	Cc1cc(/C=C2\NC(=S)NC2=O)c(C)n1-c1ccc(I)cc1	9	109	x	x
8	Cc1oc(-c2cccc(Cl)c2)nc1CN1CCNCC1	-18	108	x	x
9	O=C(c1ccc(Cn2c(=O)[nH]c3ccsc3c2=O)cc1)N1CCN(c2ccccn2)CC1	5	103	109	84
10	COc1ccc(OC)c(NS(=O)(=O)c2ccc(-n3cccn3)cc2)c1	x	104	112	85
11	O=C1OC(C(=O)Nc2ccccc2)Cc2ccccc21 (stereo not given)	-15	99	92	91
12	CCOCCCNC(=O)c1ccc2c(c1)NC(=O)C(CS(=O)(=O)Cc1ccc(F)cc1Cl)N2 (stereo not given)	x	162	93	86
13	CC1(c2ccccc2)NC(=O)N(NC(=O)CSc2nnc(-c3ccccc3)o2)C1=O (stereo not given)	-15	x	96	98
14	CCC(C)NS(=O)(=O)c1ccccc1C(F)(F)F (stereo not given)	-14	x	106	91
15	COc1cccc(CSc2nc3cc(C(=O)NC4CCCC4)ccc3c(=O)n2Cc2ccccc2)c1	x	98	109	87
16	Cc1onc(-c2c(Cl)cccc2Cl)c1NC(=O)N(C)C1CCCCC1	-20	103	97	94
17	O=C(c1ccc(Br)cc1)C1Oc2ccccc2C2CC(c3ccccc3)=NN12 (stereo not given)	-10	97	x	x
18	S=c1[nH]ccn1Cc1ccccc1	-26	x	72	80
19	CC(=O)Nc1ccccc1NC(=O)CN(C)S(=O)(=O)c1ccccc1	-10	101	102	108
20	O=C(OCCCCN1C(=O)c2ccccc2C1=O)c1n[nH]c2ccccc12	-10	x	101	103

# In another format: results already given.
3	O=C(O)c1cn2ccccc2n1
  HCMV UL50-53 inh: 23
  GIV Gai3 FP: x
  Sa growth 42C: 112
  Sa growth 42C second temp: 110
4	Cc1nc2ccccc2nc1SCC(=O)Nc1ccccc1
  HCMV UL50-53 inh: -23
  GIV Gai3 FP: x
  Sa growth 42C: 103
  Sa growth 42C second temp: 85
5	NC(=O)N1CCC(C(=O)O)CC1
  HCMV UL50-53 inh: 12
  GIV Gai3 FP: x
  Sa growth 42C: 109
  Sa growth 42C second temp: 100

# In a second layout: results already given
1. S=C(Nc1ccc2[nH]ccc2c1)NC1CCCCC1
  HCMV UL50-53 inh: 6	GIV Gai3 FP: 109	Sa growth 42C: 96	Sa growth 42C second temp: 90
18. S=c1[nH]ccn1Cc1ccccc1
  HCMV UL50-53 inh: -26	GIV Gai3 FP: x	Sa growth 42C: 72	Sa growth 42C second temp: 80

# Additional structures follow.
entry	smiles	HCMV UL50-53 inh	GIV Gai3 FP	Sa growth 42C	Sa growth 42C second temp
21	O=C(CSc1ncn[nH]1)n1c2c(c3ccccc31)CCCC2	-4	105	x	x
22	COC(=O)c1c(C)nn(-c2ccc(F)cc2)c1-n1cccc1	-24	107	104	84
23	COc1cccc(C2CC(=O)Nc3c2c(-c2ccccc2)nn3-c2ccccc2)c1OC (stereo not given)	-21	102	x	x
24	CC(C)(C)c1ccc(S(=O)(=O)Nc2ccc(Cn3cnc(-c4nc(-c5ccc(F)cc5)no4)c3)cc2)cc1	-37	105	x	x
25	CN1CCN(c2nc(N3CCCc4ccccc43)nc(N3CCCc4ccccc43)n2)CC1	5	102	104	97
26	CC(C)CN(CCCNC(=O)c1cc(-c2ccc(Br)s2)nc2ccccc12)CC(C)C	-43	111	104	85
27	Nc1nc(-c2ccco2)nc(-c2ccco2)n1	-2	103	117	75
28	O=C1c2ccccc2CCC1C1(O)C(=O)Nc2ccccc21 (stereo not given)	-23	106	x	x
29	O=C(Cn1c(C(=O)c2ccc(Br)cc2)nc2ccccc21)NCCc1ccccc1	23	107	x	x
30	O=C(Oc1ccc2c(=O)c(Cl)coc2c1)c1cccnc1	-2	104	109	72
31	CCOC(=O)c1nc(Nc2ccc(C(C)=O)cc2)c2ccccc2n1	-83	105	91	84
32	Cc1[nH]c2ccc(C(=O)NN)cc2c1C	4	103	82	72
33	Oc1ccc(C2N(c3ccccc3)CCN2c2ccccc2)cc1	8	x	98	104
34	O=C(O)CCN1C(=O)SC(Nc2ccccc2)C1=O (stereo not given)	x	102	105	100
35	O=C(Nc1nnc(CCS(=O)(=O)c2ccc(Cl)cc2)s1)c1ccc([N+](=O)[O-])cc1	-22	104	x	x
36	Cc1c(C)c2cc3c(=O)ccoc3c(C)c2oc1=O	-23	95	x	x
37	CC(C)N1CCN(C(=O)c2ccccc2)CC1	-19	99	79	85
38	Cc1ccc(CNC(=O)CSc2nc3ccsc3c(=O)n2Cc2ccccc2F)cc1	x	101	100	99
39	CCN(CC(=O)NCc1ccc(F)cc1)C(=O)C1CCCC1	8	x	96	92
40	COc1ccc(-c2nc3sc(CCNC(=O)C(=O)Nc4ccccc4C#N)c(C)n3n2)cc1	x	100	113	85
41	Cc1ccc(CN(Cc2ccco2)C(=O)COc2ccc(C(C)C)cc2)cc1	13	104	79	70
42	COC(=O)c1cc(-c2ccccc2)nc2c1c(C)nn2-c1ccccc1	-21	x	117	85
43	COc1ccc(-n2cccc2C=C(C#N)C#N)cc1	-26	107	78	78
44	O=C(CN(C1=NC2CS(=O)(=O)CC2S1)c1ccccc1F)Nc1ccccc1 (stereo not given)	1	101	84	95
45	COc1ccc(NC(=O)c2cnc(N3CCCCC3)c3ccccc23)cc1Cl	x	110	100	95
46	COc1ccc2c(c1)CC(NC(=O)Nc1c(C)cc(C)cc1C)CO2 (stereo not given)	x	99	84	91
47	Cc1cc(C)nc(SCc2ccc(C(=O)N/N=C/c3ccco3)cc2)n1	-54	x	92	95
48	CCOC(=O)C1=C(C)NC(C)=C(C(=O)OCC)C1c1c(F)cccc1Cl	-14	102	x	x
49	COC(=O)c1ccc(COC(=O)CNS(=O)(=O)c2ccccc2)cc1	-11	102	116	98
50	CCOc1ccc(NC(=O)[C@H]2O[C@@H]3OC(C)(C)O[C@@H]3[C@H]3OC(C)(C)O[C@H]32)cc1	-4	107	108	95
51	O=C(c1ccc2c(c1)N(Cc1ccccc1F)C(=O)c1ccccc1S2(=O)=O)N1CCCCCC1	-35	105	93	90
52	CCOC(=O)c1ccc2c(c1)C1C=CCC1C(c1ccc(Cl)cc1Cl)N2 (stereo not given)	-8	100	x	x
53	O=C(NCCCl)c1ccc2ccccc2n1	-53	x	89	84
54	COc1cccc(NC(=O)C2CCN(Cc3cnn(-c4ccccc4)c3-n3cccc3)CC2)c1	10	97	x	x
55	CC(=O)Oc1ccc(CC2SC(=O)NC2=O)cc1 (stereo not given)	-13	98	107	90
56	Cc1cccc(Cn2c(=O)n(-c3ccccc3)c(=O)c3sccc32)c1	x	102	99	112
57	COc1ccc(Oc2nc3c(c(=O)n(Cc4ccccc4Cl)c(=O)n3C)n2C)cc1	-22	108	86	92
58	c1ccc(-c2nc3cnccn3c2Nc2ccc3c(c2)OCCO3)cc1	-11	101	86	82
59	NC(=O)Cn1c(=O)n(Cc2ccccc2)c(=O)c2cccnc21	x	107	99	83
60	Cn1c(CSCC(=O)Nc2ccccc2)nnc1SCc1ccc(Cl)cc1	-45	105	97	78
61	COc1ccc(C)cc1NC(=O)C(OC(=O)c1ccc(Br)o1)c1ccccc1 (stereo not given)	-10	x	138	99
62	COC(=O)c1ccc(Cl)cc1NC(=O)Nc1nnc(N2CCCC2)s1	-17	103	123	95
63	N#CC1=C(N)Oc2n[nH]c(-c3cccc([N+](=O)[O-])c3)c2C1c1c(F)cccc1Cl (stereo not given)	-19	96	x	x
64	CCOc1ccc(/C=N/NC=O)cc1	-51	x	83	95
65	COc1ccc(OC)c(/C=c2\sc3nnc(-c4ccccc4Cl)n3c2=O)c1	-8	x	99	83
66	COc1ccc(-c2cn3cccnc3n2)cc1NC(=O)COc1ccccc1	x	107	52	28
67	COc1ccc(-c2nnc3sc(-c4cnccn4)nn23)cc1OC	-11	108	x	x
68	CCOc1ccc(CN2CCC(n3nc(-c4ccoc4C)oc3=O)CC2)cc1	5	107	117	94
69	O=C(Nc1ccc2oc(-c3ccc(F)cc3Cl)nc2c1)c1ccc([N+](=O)[O-])cc1[N+](=O)[O-]	-25	101	x	x
70	CS(=O)(=O)c1ccc2nc(NC(=O)C3CCCO3)sc2c1 (stereo not given)	1	x	79	99
71	Cc1cc(OCC(=O)Nc2ccccc2Cc2ccccc2)no1	-14	x	96	94
72	O=C(CSc1nc2ccccc2s1)NNc1ncnc2c1cnn2Cc1ccccc1	6	98	103	71
73	N#CC(C(=O)c1ccc(Cl)cc1Cl)c1nc2ccccc2[nH]1 (stereo not given)	-13	x	89	84
74	Cc1cccc(C2C3=C(CC(c4ccc(Cl)cc4)CC3=O)Nc3onc(C)c32)c1 (stereo not given)	6	110	x	x
75	O=C1C=C/C(=N\OC(=O)c2ccccc2)C2=C1C1C=CC2C1 (stereo not given)	-3	x	111	103
76	CSc1cccc(-n2nnc(C(N)=O)c2C)c1	x	102	96	84
77	CCOC(=O)C1CCc2nc3ccccc3c(=O)n21 (stereo not given)	4	101	80	113
78	CC1CN(S(=O)(=O)c2ccc(F)c(F)c2)CC(C)O1 (stereo not given)	-27	x	118	87
79	CCN1CCCC(OC(=O)c2ccc3c(=O)n4c(nc3c2)CCCCC4)C1 (stereo not given)	-8	x	83	86
80	CCOC(=O)c1ccccc1NC(=O)N(CC)c1nc(-c2ccc(Br)cc2)cs1	-20	104	x	x

# (continued)
entry	smiles	HCMV UL50-53 inh	GIV Gai3 FP	Sa growth 42C	Sa growth 42C second temp
81	CC(=O)N/C(=C\c1ccc(OC(C)C)cc1)C(=O)O	-5	113	113	91
82	CCCCc1nc2n[nH]c(N)c2c2c1CCCC2	-20	99	81	66
83	O=C1N(c2ccccc2)C(c2ccccc2)C1(F)F (stereo not given)	-44	x	107	81
84	Cc1cc(-n2c(SCC(=O)NCc3ccccc3)nc3ccsc3c2=O)ccc1Cl	x	101	81	91
85	O=C1c2cccc3cccc(c23)N1CSc1nc2ccccc2s1	-6	x	76	74
86	CCN(CC)S(=O)(=O)c1ccc(NC(=O)[C@H](CCSC)N2Cc3ccccc3C2=O)cc1	-10	105	103	83
87	COc1ccc2oc(=O)c(C(=O)NC3CCCCC3C)cc2c1 (stereo not given)	-28	102	107	101
88	CCOc1ccc(N2C(=O)/C(=C/c3ccc(Br)cc3)NC2=S)cc1	2	104	x	x
89	CC(C)c1ccccc1NC(=O)COC(=O)c1ccc2ccccc2n1	6	x	92	94
90	CC(C)COc1ccc(C(=O)N2CCCCC2CCN2CCCCC2)cc1 (stereo not given)	-29	102	94	90
91	O=C(CSCc1ccccc1)Nc1nnc(CSCc2ccccc2)s1	2	x	96	75
92	Cc1cc(NCc2ccccn2)n2nc(C(F)(F)F)c(-c3ccc(Cl)cc3)c2n1	14	106	x	x
93	Cc1cc(C)nc(/N=C/c2ccccc2O)c1	0	107	105	89
94	Cc1[nH]c2ccccc2c1C(=O)CN1CCN(S(=O)(=O)c2ccccc2F)CC1	-14	x	86	95
95	CCN(CC)CCn1c2ccccc2c2nc(C)sc21	-16	103	98	84
96	Cc1ccc(-c2cc(N3CCN(S(C)(=O)=O)CC3)ncn2)cc1	-3	102	x	x
97	FC(F)(F)c1cccnc1Oc1ccc(C2=NCCS2)cc1	1	104	102	92
98	CCOC(=O)c1ccc(-c2ccc(/C=C3\SC(NC(C)=O)=NC3=O)o2)cc1	-25	104	x	x
99	Cc1nn(-c2ccccc2)c2nc3c(cc12)C(=O)CCC3	12	x	84	98
100	Cc1cccc(-c2cc(C(=O)Nc3ccc(C(N)=O)cc3)c3ccccc3n2)c1	-11	109	x	x
101	CC(=O)Nc1ccc(Nc2cc(N3CCCC3)nc(C)n2)cc1	-40	101	x	x
102	CCCCOc1ccc(NC(=O)c2cc(=O)c3ccc(C)c(C)c3o2)c2cccnc12	-20	92	x	x
103	COc1ccc(C2C3=C(CCCC3=O)N(CC(=O)O)C3=C2C(=O)CCC3)cc1	-49	98	88	85
104	CN(C)C(=S)SCC(=O)Nc1cccc(C(F)(F)F)c1	-22	x	81	92
105	COC(=O)c1ccc(-n2nc(C)cc2C)cc1	-3	99	117	85
106	CC(=O)N(Cc1cccnc1)Cc1cc2cc3c(cc2[nH]c1=O)OCCO3	-27	105	95	91
107	O=C1c2ccccc2C(=O)N1CCc1cn2cccnc2n1	-39	x	102	88
108	COc1ccc(CN2C(=O)c3ccccc3C2C(=O)NCCc2ccccc2)c(OC)c1 (stereo not given)	-8	101	103	84
109	Cc1ccc(NC(=O)NCCCn2c(-c3ccncc3)nc3cccnc32)cc1F	-11	112	x	x
110	c1ccc(CN(Cn2nnc3ccccc32)Cn2nnc3ccccc32)cc1	-21	110	98	101
111	COc1ccccc1C(=O)NCc1ccc2[nH]c3c(c2c1)CCCC3	x	102	119	88
112	Cc1c(Cl)cccc1NC(=O)CCS(=O)(=O)c1ccc2c(c1)CC(C)N2C(=O)C1CC1 (stereo not given)	x	106	111	88

# Compound activity as filed in PubChem.
